Screening results: PubChem, National Center for Advancing Translational Sciences (NCATS)
VACV Venus inh: inhibitors of vaccinia virus (Venus reporter); AID 720580; 330,000 compounds, 0.46% hits; Vaccinia virus Venus reporter expression, fluorescence; Potency, µM (series often up to 36.5 µM), inactives show top-dose activity change, negative = inhibition, usual class: inhibitors; active means well fitted inhibition curve with a large enough effect; inconclusive means small, poorly fitted or top-dose-only effect; inactive means no such curve, though single readings can be large or run the other way; tested in A549 cells; note: nearly all actives have a fitted effect of over 30% in size; inactives centre near -10
VACV mCherry inh: inhibitors of vaccinia virus infection (mCherry reporter signal). Vaccinia virus mCherry reporter infection, fluorescence; about a quarter of the inactives have no number. Potency, µM (top dose mostly 36.5 µM), without a hit: at the highest dose activity change, negative = inhibition, hits mostly inhibitors. 310,000 compounds, 0.63% hits. AID 720579; active = well fitted inhibition curve with a large enough effect; inconclusive = small, poorly fitted or top-dose-only effect; inactive = no such curve, though single readings can be large or run the other way; tested in A549 cells; note: nearly all actives have a fitted effect of over 35% in size; inactives centre near -10
Starred values were filed as active, the others as inactive; i = inactive; ? = inconclusive; . = no result given; & = joins results of further samples; [ ] = remark or other dose. % is set by controls: 0 for no effect and ±100 for the full control effect; potency is the fitted concentration of half-maximal effect.

SMILES	VACV Venus inh	VACV mCherry inh
CC(C)(C)c1ccc(C(=O)C[N+]2(C)CCCc3ccccc32)cc1 (centres undefined)	-21.8%	i
COc1ccc(-c2nc3sc(CCNC(=O)C(=O)Nc4ccc(OC)c(OC)c4)c(C)n3n2)cc1	-8.3%	-1.5%
CN(C)C=Nc1nonc1-c1ncn[nH]1	-23.7%	.
Cc1ccc(NC(=S)NCCc2ccccc2)c(C)c1	-6.0%	-14.7%
CCOCCCNC(=O)C(c1ccc(C)cc1)N(Cc1ccc2c(c1)OCO2)C(=O)CNC(C)=O (centres undefined)	-6.4%	-9.5%
O=C1CC/C=C\C[C@@H](CC(=O)N(CCO)Cc2ccccc2)C(=O)N[C@H](Cc2ccccc2)CO1	-19.7%	-6.3%
Cc1cccc(C(=O)Nc2ncc(CN3CCOCC3)s2)c1	-8.9%	-21.1%
CCOC(=O)C(CC)(CCC(=O)O)c1csc(Nc2ccc(C)cc2)n1 (centres undefined)	-2.9%	-23.0%
S=C(NCCc1ccccc1)NC1CC2CCC(C1)N2Cc1ccccc1 (centres undefined)	-17.4%	-25.0%
Cn1c(Cc2nc(-c3cnccn3)no2)nnc1SCC(=O)Nc1ccccc1	-4.2%	i
CN1CCN(C(=O)c2cnn3c(C(F)(F)F)cc(-c4cccs4)nc23)CC1	2.0%	-6.6%
CC1Cc2ccccc2N1C(=O)c1cc2sccc2n1Cc1ccccc1 (centres undefined)	-9.3%	i
Clc1ccc(-c2nnc(-c3ccccc3Cl)o2)cc1	-9.8%	-7.0%
CC(C(N)=O)N1CC(c2ccccc2)CC1=O (centres undefined)	-10.2%	.
Cc1ccc(S(=O)(=O)CCc2nnc(NC(=O)c3ccccn3)s2)cc1	5.5%	.
Cc1cc(NC(=O)CCSc2ccccc2)no1	-19.4%	-3.2%
O=C(OCCCC(=O)N1CCOCC1)c1ccccc1	-7.9%	-14.4%
COc1ccc(C(=O)COc2ccc(NC(C)=O)cc2)cc1	4.8%	i
COc1ccc(S(=O)(=O)N2CCCCCC2)cc1N(C)S(=O)(=O)c1ccc(C)cc1	?	-14.7%
O=C(Nc1ccccc1)O/N=C(\c1ccccc1)c1ccccn1	0.6%	-13.2%

A few values from above.
For VACV Venus inh, `CCOC(=O)C(CC)(CCC(=O)O)c1csc(Nc2ccc(C)cc2)n1` (centres undefined) is listed with -2.9%
For VACV Venus inh, `CC(C)(C)c1ccc(C(=O)C[N+]2(C)CCCc3ccccc32)cc1` (centres undefined) is listed with -21.8%

4 compounds out of the list, sorted by SMILES length, descending:
SMILES	VACV Venus inh	VACV mCherry inh
COc1ccc(-c2nc3sc(CCNC(=O)C(=O)Nc4ccc(OC)c(OC)c4)c(C)n3n2)cc1	-8.3%	-1.5%
Cc1ccc(S(=O)(=O)CCc2nnc(NC(=O)c3ccccn3)s2)cc1	5.5%	.
Clc1ccc(-c2nnc(-c3ccccc3Cl)o2)cc1	-9.8%	-7.0%
Cc1ccc(NC(=S)NCCc2ccccc2)c(C)c1	-6.0%	-14.7%

The results go on:
SMILES	VACV Venus inh	VACV mCherry inh
COc1ccc(OC)c(Nc2nc(C3CC3)nc3c2nnn3Cc2ccccc2)c1	-13.9%	-5.2%
COc1ccc(-c2nc3scc(CCNS(=O)(=O)c4ccc5c(c4)OCCO5)n3n2)cc1OC	-5.7%	-11.0%
Cc1ccsc1C(=O)N1CC=C(c2ccccc2)CC1	-20.5%	-25.5%
C[C@H](c1ccccc1)N1C[C@H](COCc2ccccc2)Oc2cc(N3CC[C@@H](N(C)C)C3)ccc2S1(=O)=O	-18.0%	-12.8%
COc1ccc(-c2cccc(NS(=O)(=O)c3cc([N+](=O)[O-])ccc3Cl)c2)nn1	-8.0%	i
Cc1cc(C(=O)O)c(C)n1Cc1ccncc1	-14.6%	-15.6%
CC(C)CN(C(=O)C1CC1)c1c(N)n(Cc2ccccc2)c(=O)[nH]c1=O	-3.5%	?
CCCOc1ccc(Cn2ccnc2)cc1[N+](=O)[O-]	-19.0%	-5.3%
CC1=C(/C=C/C(C)=C/C=C/C(C)=C/C(=O)O)C(C)(C)CCC1	-22.7%&-10.2%	-2.6%&-17.3%
O=C(CCNS(=O)(=O)c1ccc(F)c(Cl)c1)NCc1ccccc1F	-10.6%	-11.6%
CCCOc1ccc(N2C(=O)CC(N3CCC(C(=O)OCC)CC3)C2=O)cc1 (centres undefined)	-3.1%	-6.7%
CCN(CC)CCN(C(=O)c1ccc2c(c1)CCCC2)c1nc2ccc(C)cc2s1	-17.2%	-24.0%
COc1cccc(COC(=O)Nc2ccccc2)c1OC	4.6%	9.4%
O=C1NC(CCc2ccccc2)C(=O)N1Cc1ccccc1Cl (centres undefined)	-19.1%	-8.8%
CC1CCN(c2ccc(-c3cccc(NC(=O)C(F)(F)F)c3)nn2)CC1	-9.3%	-14.0%
CN(CC(=O)Nc1ccc(F)c(F)c1F)C(=O)CCc1nc2sc3c(c2c(=O)[nH]1)CCCC3	8.6%	-2.9%
COc1ccc(OCc2nc(N)nc(Nc3cccc(C)c3C)n2)cc1	-5.2%	i
O=C(NCCCCc1ccccc1)c1cccc(NC(=O)c2ccccc2)c1	-25.9%	-5.0%
CC(Sc1nnnn1C)C(=O)NC1CCCC1 (centres undefined)	-8.2%	-15.0%
Cc1cc(-c2cc(-c3ccc(Cl)cc3)on2)nc(NCC2CC2)n1	-17.1%	i

Pulled by structure from above:
SMILES	VACV Venus inh	VACV mCherry inh
CC1CCN(c2ccc(-c3cccc(NC(=O)C(F)(F)F)c3)nn2)CC1	-9.3%	-14.0%
Cc1ccsc1C(=O)N1CC=C(c2ccccc2)CC1	-20.5%	-25.5%

Remaining list, next part:
SMILES	VACV Venus inh	VACV mCherry inh
CCS(=O)(=O)N1CCc2cc(C(=O)NC(C)c3ccccc3)ccc21 (centres undefined)	2.3%	-20.9%
CCOc1ccc(/C=C2\SC(=S)N(CCC(=O)N(CCO)c3ccccc3)C2=O)cc1	?	?
Cc1[nH]c2ccccc2c1/C=N/NC(=O)C1CC1(c1ccccc1)c1ccccc1 (centres undefined)	11.2µM*	?
COc1cc2c(C#CCO)c(-c3ccc(C#N)cc3)oc(=O)c2cc1OC	-8.6%	-28.3%
Cc1ccc(C(=O)NCC(=O)OC(C)C(=O)Nc2ccc(N(C)C)cc2)s1 (centres undefined)	-3.1%	-0.5%
CC(=O)c1cc2c(cc1NC(=O)C1CN(C(C)=O)c3ccccc3O1)OCO2 (centres undefined)	-0.1%	-12.0%
CC(=O)Oc1ccc2cc(-c3nc4c(s3)CCc3ccccc3-4)c(=O)oc2c1	32.2%[activator]	-17.0%
Cc1ccc(S(=O)(=O)Nc2nc3ccccc3nc2NCc2ccco2)cc1	11.6%	i
COc1ccc(S(=O)(=O)N(CCc2ccccc2)CC(=O)O)cc1OC	-18.0%	i
CCN(C(=O)COC(=O)c1ccc2ccccc2n1)c1c(N)n(Cc2ccccc2)c(=O)[nH]c1=O	-13.9%	-0.7%
C[C@@H]1COC(=O)CCC/C=C\C[C@@H](CC(=O)N(CCO)Cc2ccccc2)C(=O)N1	-0.4%	-2.4%
CN1CC(C(=O)c2ccccc2)C(c2ccccc2)C1 (centres undefined)	-6.4%	-9.1%
COc1ccc(OC)c(C(=O)NC(CC(N)=O)c2ccc(NCCN3CCCC3)c([N+](=O)[O-])c2)c1 (centres undefined)	-5.0%	i
CCCCc1nc2ccccc2c(=O)n1-c1cccc(OC)c1	3.8%	-4.8%
Cc1cccc[n+]1C1C(c2ccccc2)C(C#N)=C(C(=C=[N-])C#N)NC1(O)C1CC1 (centres undefined)	23.3%	-2.1%
O=C(c1ccco1)N1CCN(Cc2ccc(F)cc2Cl)CC1	-4.1%	-23.1%
Cc1nnc(N2CCCC(C(=O)Nc3cccc(C(F)(F)F)c3)C2)c2nn(-c3ccccc3)c(C)c12 (centres undefined)	-19.6%	-29.0%
COc1ccc(CSc2nnc(CNS(C)(=O)=O)o2)cc1	-12.2%	-17.4%
Cc1noc(C)c1COc1cccc(C(=O)Nc2ccc(OCc3ccccc3)cc2)c1	?	-16.6%
CCOC(=O)c1cnc(N)nc1C(F)(F)F	-2.6%	-5.5%

One compound at a time (already shown). Order of screens: VACV Venus inh, VACV mCherry inh
Cc1noc(C)c1COc1cccc(C(=O)Nc2ccc(OCc3ccccc3)cc2)c1 as listed: ?, -16.6%
Cc1cccc[n+]1C1C(c2ccccc2)C(C#N)=C(C(=C=[N-])C#N)NC1(O)C1CC1 (centres undefined) as listed: 23.3%, -2.1%

Other records:
SMILES	VACV Venus inh	VACV mCherry inh
O=C(NNC(=O)c1csc(-c2cccs2)n1)c1ccc(Cl)cc1	-10.5%	7.4%
CCCCC1=NN(C(=O)c2ccco2)C(O)(C(F)(F)F)C1 (centres undefined)	-21.0%	?
NNC(=O)COc1cccc2cccnc12	-8.4%	-5.1%
CCN1CCN(S(=O)(=O)CC2(C)C3CCC2(C)C(=O)C3Br)CC1 (centres undefined)	-6.6%	-5.5%
COc1cccc(N/C(SCc2ccccc2C)=C(/C#N)C(=O)NCc2cccs2)c1	-15.2%	-17.3%
Cc1ccc(C(=O)N2CCN(C(=O)c3ccc(C)cc3)C2)cc1	-29.2%	-11.4%
Cc1ccc(C2CN(CCC(N)=O)C(=O)CO2)cc1 (centres undefined)	-3.7%	-8.7%
C#CCNC(=O)/C=C/c1ccc(C)cc1	-10.6%	-14.0%
CCOC(=O)Cn1c(C)c(Br)c(COC)c(C#N)c1=O	-7.7%	-14.5%
C=C[C@@](C)(O)CC[C@@H]1[C@@]2(C)CCCC(C)(C)[C@@H]2CC[C@@]1(C)O	-13.8%	-15.5%
CCCn1c(SC(C)C(=O)N2CCOCC2)nc2ccc(Br)cc2c1=O (centres undefined)	-10.1%	-2.3%
CC1(C)S[C@@H]2[C@H](NC(=O)COc3ccccc3)C(=O)N2[C@@H]1C(=O)OCc1cccc2cccnc12	-14.6%	-0.2%
Cc1ccc(Cl)cc1NC(=O)COC(=O)CC(C)(C)C	-0.6%	-2.6%
O=C(Cn1cc([N+](=O)[O-])cn1)N1CCCc2ccccc21	3.9%	6.2%
CC1=CS/C(=C(/C#N)C(=O)NCc2ccco2)N1c1ccccc1	-6.3%	20.9%
COc1cc(-c2nc(-c3ccc(NC(=O)c4ccc5c(c4)OCO5)cc3)no2)cc(OC)c1OC	-14.7%	-17.7%
Cc1cccc(N2CCN(C(=O)c3cn4ccccc4n3)CC2C)c1 (centres undefined)	-14.5%	-2.3%
CCNC(=O)C1(C)CCCN1C(=O)c1cc(C)on1 (centres undefined)	1.4%	15.7%
CCC(C)C1/C=C\CC(NC(=O)OCC2c3ccccc3-c3ccccc32)CC(=O)N1Cc1ccccc1 (centres undefined)	-16.7%	?
CCOC(=O)C(C(=O)OCC)C(C)(C)/C(C)=N\Nc1ccc([N+](=O)[O-])cc1[N+](=O)[O-]	-16.3%	-2.7%
CC(C)(C)OC(=O)C[C@H]1C/C=C\C[C@@H](CC(=O)NCCO)C(=O)N[C@H](Cc2ccccc2)COC1=O	-8.7%	-25.9%
COc1ccccc1CNc1nc(C)c(C(C)=O)s1	-5.4%	i
CCOc1ccc(S(=O)(=O)N(CC(=O)O)c2ccccc2)cc1	-2.4%	-2.0%
Cc1cc(N2CCN(c3ccc(F)cc3)CC2)nc2cc(O)ccc12	-16.8%	?
CCCn1c(C2CCCN2c2nc(-c3ccc(C)cc3)cs2)nc2ccccc21 (centres undefined)	?	?
O=C1/C(=C/c2ccccc2Cl)N2CCC1CC2	3.6%	-12.6%
CN1OC[C@@H]2CN(C(=O)CCc3ccccc3)[C@H](c3cccc(N4CCOCC4)c3)C[C@@H]21	11.7%	-12.3%
COc1ccc(CCNC(=O)COc2cc(C)cc3oc(=O)cc(C)c23)cc1OC	-18.7%	-11.5%
O=C(NCc1cccnc1)c1cn(-c2ccccc2)nc1-c1cccs1	-3.7%	-12.3%
CCn1c(SCC(N)=O)nc2sc3c(c2c1=O)CCN(C)C3	-5.1%	i
O=C(NCCN1CCN(Cc2ccccc2)CC1)C1CC(=O)N(C2CCCC2)C1 (centres undefined)	-14.7%	i
COc1ccc(C(=O)Nc2ccc(N3CCN(Cc4ccccc4)CC3)cc2)cc1	-3.7%	-9.9%
COc1ccc(NC(=O)c2c(F)c(F)c(F)c(F)c2F)cc1Cl	?	?
COc1cccc(OCC(=O)Nc2ccccc2C(N)=O)c1	-11.5%	-17.4%
COc1ccc(C)cc1NS(=O)(=O)c1ccc2c(c1)N(C(C)=O)CCO2	-10.6%	i
CCc1ccc(NC(=O)C2CCN(S(=O)(=O)c3ccc4c(c3)CC(C)N4C(C)=O)CC2)cc1 (centres undefined)	?	-10.9%
CCN(CC)C(=O)C1=C(C)N(Cc2ccccc2)C(=O)C(CC(=O)NC2CC2)C1 (centres undefined)	-10.2%	i
O=C(/C=C/c1ccc2c(c1)OCO2)NCCSCc1ccc(Cl)cc1Cl	-6.1%	-10.6%
O=C(COC(=O)c1ccco1)Nc1ccc(N2CCOCC2)cc1	-10.4%	i
COc1ccc(CCNC(=O)C(=O)NCc2ccccc2)cc1OC	?	?
CC1(C)Cc2c(cnn2-c2ccccc2)C(NC(=O)CCCN2CCCC2=O)C1 (centres undefined)	-11.1%	-16.4%
N#Cc1ccccc1OCC(=O)NC1CCCCCC1	-26.1%	i
COc1ccc(CCNc2ncnc3sc(C(=O)N4CCCC4)c(C)c23)cc1OC	-0.6%	-11.5%
CCOC(=O)c1ccc(S(=O)(=O)N2CCN(CC(O)COc3ccc(C#N)cc3)CC2)cc1 (centres undefined)	-14.8%	i
